Screening results as filed in PubChem BioAssay.
Six1-Eya2 inh – qHTS Assay for Inhibitors of the Six1/Eya2 Interaction; activity change, % (no concentration beside the values); 360,000 tested, 0.56% active; AID 651725, 2012; Homeobox protein SIX1 (Homo sapiens) + Protein phosphatase EYA2 (Homo sapiens), …; AlphaScreen GST-Six1/His-Eya2 binding, biochemical; stronger effect = lower value; control for the full effect not named in the record; in the data active = activity change below about -65%; inconclusive = about -30% to -65%; inactive = above about -30%; note: % is set by controls: 0 for no effect and ±100 for the full control effect; compound concentration not given in the record
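GST-Six1 + His-Eya2 (5X stock: 250/500 nM); Tris pH 8.0, 300 mM NaCl, 0.05% BSA, 0.02% Tween 20; GSH donor/Ni acceptor beads; 1 h 37 °C dark; AlphaScreen readout.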
D2 PAM – Beta-Arrestin HTS for Positive Allosteric Modulators of the Human D2 Dopamine Receptor: Potentiators | D(2) dopamine receptor (Homo sapiens), P14416 | DiscoveRx D2 beta-arrestin cells, luminescence, 90 min; 100% = 57 uM dopamine signal | potentiation, % (concentration not given with the values) | 360,000 tested, 0.23% active | AID 624464, 2012; active = potentiation of 50% or more; inconclusive = 30% to 50%; inactive = 30% or less;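 note: compound concentration not given in the record; tested on top of an EC20 dose of dopamine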
Target sequence (P14416 whole entry, looked up): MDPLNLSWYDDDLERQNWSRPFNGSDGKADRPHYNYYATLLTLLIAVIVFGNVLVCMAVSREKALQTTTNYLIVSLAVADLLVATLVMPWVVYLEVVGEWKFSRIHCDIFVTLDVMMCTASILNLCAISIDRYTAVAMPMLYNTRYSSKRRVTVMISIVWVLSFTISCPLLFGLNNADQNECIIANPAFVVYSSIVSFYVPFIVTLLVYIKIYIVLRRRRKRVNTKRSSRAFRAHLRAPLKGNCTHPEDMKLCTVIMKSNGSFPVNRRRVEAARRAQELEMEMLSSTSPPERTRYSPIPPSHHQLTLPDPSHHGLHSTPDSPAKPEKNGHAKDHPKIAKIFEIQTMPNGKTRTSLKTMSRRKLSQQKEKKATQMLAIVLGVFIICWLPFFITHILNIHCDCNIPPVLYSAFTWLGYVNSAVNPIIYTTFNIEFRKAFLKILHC
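PathHunter beta-arrestin assay in DiscoveRx D2 cells. Compounds were added with an EC20 of dopamine (50 nM final) for 90 min at 37 deg C. Luminescence was read 1 h after detection reagent, with 57 uM dopamine as the EC100 control.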
D2 agonist – Beta-Arrestin HTS for Positive Allosteric Modulators of the Human D2 Dopamine Receptor: Agonists | DiscoveRx PathHunter D2 beta-arrestin, luminescence, 90 min; 100% = 57 uM dopamine signal | activation, % (no concentration beside the values) | 360,000 tested, 0.084% active | AID 624465, 2012; in the data active = activation above about 40%; inconclusive = about 15% to 40%; inactive = below about 15%; note: compound concentration not given in the record; the text of the record calls up to 30% inactive
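Agonist mode: compounds alone added to overnight-plated D2 PathHunter cells for 90 min at 37 C, with 57 uM final dopamine (EC100) defining full response. Beta-arrestin recruitment detected by chemiluminescent reagent, read after 1 h at ambient temperature.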
TRPML1 agonist – qHTS for Agonists of the Human Mucolipin Transient Receptor Potential 1 (TRPML1). TRPML1-expressing cells, Ca2+ dye fluorescence, FDSS; host cell line not named in the record; reference of the full effect not given here. 410,000 tested, 0.12% active. AID 624414, 2012. activation, % (test concentration not listed); in the data active = activation above about 50%; inconclusive = about 30% to 50%; inactive = below about 30%; note: 0% is about no effect; the text of the record puts the active cut at 80%
Target sequence (Q9GZU1 whole entry, looked up): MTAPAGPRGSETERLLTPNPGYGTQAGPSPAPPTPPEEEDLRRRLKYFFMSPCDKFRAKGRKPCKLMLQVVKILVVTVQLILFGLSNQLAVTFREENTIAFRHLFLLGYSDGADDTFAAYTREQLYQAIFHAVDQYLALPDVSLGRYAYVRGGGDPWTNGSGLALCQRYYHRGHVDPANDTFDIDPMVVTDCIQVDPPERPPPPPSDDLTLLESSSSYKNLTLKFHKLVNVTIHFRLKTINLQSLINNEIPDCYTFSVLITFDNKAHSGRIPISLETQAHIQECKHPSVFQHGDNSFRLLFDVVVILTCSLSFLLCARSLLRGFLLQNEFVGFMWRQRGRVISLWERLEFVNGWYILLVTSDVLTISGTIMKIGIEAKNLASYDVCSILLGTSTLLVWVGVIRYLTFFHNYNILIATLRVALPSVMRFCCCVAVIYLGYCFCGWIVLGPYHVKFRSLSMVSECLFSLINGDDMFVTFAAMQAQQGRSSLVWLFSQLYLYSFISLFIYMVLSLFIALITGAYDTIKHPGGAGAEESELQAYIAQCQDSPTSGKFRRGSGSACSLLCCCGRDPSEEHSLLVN
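Calcium fluorescence on an FDSS kinetic reader gave the read-out. Tet-induced TRPML1-DL cells were plated overnight, dye-loaded (Ca8 with quencher, 45-90 min, room temperature, dark), then read 110 s after compound addition, and again 110 s after 4uM final 54-4 (EC80).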
PINK1 modulator – A Quantitative High throughput Screen to Identify Chemical Modulators of PINK1 Expression; PINK1 immunofluorescence, high-content cytometry, 24 h; Potency, µM (top dose mostly 76.6 µM), for inactives: at the top dose activation (PINK1 increase), usual class: activators; 410,000 tested, 0.2% active; active = well fitted activation curve with a large enough effect; inconclusive = small, poorly fitted or top-dose-only effect; inactive = flat fitted curve, though single readings scatter; cell line not stated here;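 note: potency is the fitted concentration of half-maximal effect; % of control where 0% means no effect; nearly all actives have a fitted effect of over 65% in size; a mitochondrial uncoupler was the plate control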
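Cells are seeded, rested 12 hours, then given compound at five concentrations or DMSO for 24 hours. After fixation, blocking and antibody staining, PINK1 amount and mitochondrial localization are scored; CCCP serves as control.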
TRPML1 inh – qHTS for Inhibitors of the Human Mucolipin Transient Receptor Potential 1 (TRPML1); AID 624415, 2012; activity change, negative = inhibition, % (no concentration beside the values); TRPML1-inducible cells, Ca2+ dye fluorescence, FDSS; stronger effect = lower value; inhibition of EC80 agonist-evoked calcium signal; 390,000 tested, 0.02% active; in the data active means activity change below about -50%; inconclusive means about -30% to -50%; inactive means above about -30%;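 note: stimulus is agonist 54-4 at its EC80 concentration; % is set by controls: 0 for no effect and ±100 for the full control effect; compound concentration not given in the record; the text of the record puts the active cut at -80%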
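Calcium fluorescence in TRPML1-DL cells induced overnight with Tet: a 110 s read after compound pin addition, then a 110 s antagonist read after challenge with 54-4 at 4 uM final (EC80).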
* = called active by the depositor; ? = inconclusive; . = not tested or not shown; [ ] = another dose, or the depositor's remark. An unsorted share of the library; about 1% have a hit in one of these screens.

structure | TRPML1 agonist | Six1-Eya2 inh | PINK1 modulator | D2 agonist | D2 PAM | TRPML1 inh
O=C(Oc1cccc([N+](=O)[O-])c1)C1CCN(C(=O)c2ccc(F)cc2)CC1 | 1.1 | -7.5 | 1.0% | -4.9 | -7.7 | 25.4
COc1ccc(OC)c(C2Nc3ccccc3NC3=C2C(=O)CC(C)(C)C3)c1 (configuration not stated) | -0.9 | 0.2 | -0.3% | 3.1 | -0.9 | 3.3
CC1=C(C(=O)N2CCOCC2)CC(CC(=O)NCc2cccc3ccccc23)C(=O)N1CCCN1CCCC1=O (configuration not stated) | 0.1 | -0.8 | -0.1% | -9.1 | -1.4 | 21.6
COc1ccc(NC(=O)/C(C#N)=C\c2ccc(N3CCOCC3)o2)cc1 | 65.4* | -12.8 | 21.0% | -3.9 | -11.8 | 1.8
COCCn1c(=O)[nH]c2cc(C(=O)NCc3ccccc3)ccc2c1=O | 0.9 | 2.9 | 2.5% | -3.2 | -9.5 | 24.6
Cn1c(NC(=O)c2cc(Cl)ccc2Cl)cc(=O)n(C)c1=O | -0.6 | 2.9 | 2.1% | -3.2 | -1.9 | 9.8
COCCCNc1ccn2nc(-c3ccc(Cl)cc3)cc2n1 | -0.3 | -14.0 | 2.5% | 11.8 | 6.7 | .
COc1cc(C2C(C(=O)c3ccc(C)o3)=C(O)C(=O)N2CCN2CCOCC2)ccc1OCCC(C)C (configuration not stated) | -0.7 | -5.1 | 1.4% | -4.0 | -14.4 | 3.5
c1ccc(COc2ncnc3c2ncn3CCCNCc2ccc3c(c2)OCO3)cc1 | 3.1 | -1.3 | 8.3% | -1.8 | -11.4 | -11.7
Cc1cc(OCC(=O)c2cccc(C(F)(F)F)c2)n2cnnc2n1 | 1.7 | -15.3 | -1.1% | 8.9 | 1.5 | -16.8
C[C@@H]1CN(S(=O)(=O)C(C)(C)C)[C@@H](CCO)/C1=C\c1ccccc1 | -0.2 | 6.0 | -0.5% | -1.5 | . | -1.6
COc1ccc(COCC(O)CN2CCN(S(=O)(=O)c3ccc(C(C)C)cc3)CC2)cc1 (configuration not stated) | 1.0 | -2.5 | -0.7% | 0.2 | -21.0 | 19.2
Cc1nc2sccn2c1-c1csc(NCc2ccccc2)n1 | 0.7 | -12.0 | . | 1.7 | 0.9 | 4.0
COc1ccc(S(=O)(=O)NC(C)C(=O)Nc2ccccc2F)cc1 (configuration not stated) | 0.0 | 0.0 | -1.5% | -1.9 | -7.5 | 0.7
O=C(/C=C\c1ccc2c(c1)OCO2)NC1CC(=O)N(c2ccccc2)C1 (configuration not stated) | -0.7 | . | 4.8% | . | . | -5.4
O=C(O)CCCCCNC(=O)c1ccccc1Br | 0.6 | 0.3 | 1.2%[38.3 µM] | -2.7 | -1.3 | -5.8
O=C(c1cc2ccccc2o1)N1CCN(c2cccc(Cl)c2)CC1 | 1.8 | 1.9 | 6.7% | -0.3 | -0.8 | 26.7
COc1ccc(CCNC(=O)c2cc(S(=O)(=O)N3CCCCC3)c[nH]2)cc1OC | -0.6 | 0.4 | 0.9% | -3.0 | -2.1 | -0.6
CCCCNC(=S)NCCN1CCCCC1 | -0.3 | -2.1 | 0.8% | -4.7 | -24.2 | -1.6
CCC(C)NC(=O)CNC(=O)c1nn(-c2ccc(OC)c(Cl)c2)c(=O)c2ccccc12 (configuration not stated) | 1.7 | 0.2 | -0.3% | -7.9 | -1.6 | 13.7
COC(=O)c1cc(C(=O)c2cc(Br)ccc2O)coc1=N | 0.5 | 2.5 | -0.3% | -0.6 | -1.0 | 5.0
Cc1cccc(CNC(=O)c2oc3c(c2C)-c2nn(Cc4ccccc4Cl)cc2CC3)c1 | 2.3 | . | 0.0% | . | . | -1.9
Cn1nnnc1SCCNCc1ccccc1OCc1ccc(F)cc1 | -0.7 | -3.1 | -0.6% | -7.7 | -6.6 | -7.1
Brc1ccc2c(c1)OCCOCCOc1cc(Br)ccc1OCCOCCOCCO2 | -0.2 | -7.5 | ? | -2.6 | 7.5 | 19.1
Cc1ccc(C)c(N2CCN(S(=O)(=O)c3ccc4c(c3)CCCN4C(=O)C3CCC3)CC2)c1 | 0.5 | . | -0.3% | . | . | 7.6
CCCN1CCN(CCCNC(=O)c2ccc3nc(Cc4ccccc4)oc3c2)CC1 | 0.9 | . | 1.6% | . | . | 17.1
COc1ccc(CCNC(=O)c2cc3sc(Cl)cc3n2C)cc1OC | 1.6 | -9.6 | 0.6% | -0.9 | -3.2 | 1.7
COc1cc(-n2nnnc2SC)c(OC)cc1Cl | 1.9 | 1.2 | -0.2% | -1.2 | -3.0 | -3.0
CCOc1ccc(-n2cnnn2)cc1S(=O)(=O)NCCc1ccc(OC)c(OC)c1 | 0.4 | -5.8 | -8.0%[38.3 µM] | 1.4 | -5.4 | 17.8
COc1cccc(Oc2nc3c(c(=O)n(Cc4ccccc4F)c(=O)n3C)n2C)c1 | -1.1 | . | 1.8% | . | . | -7.5
O=C(N1CCN(c2ccccn2)CC1)C(Cl)(Cl)Cl | 0.9 | -3.9 | -1.8% | 5.7 | 19.4 | 31.5
Cc1cc([N+](=O)[O-])ccc1N1C(=O)c2ccc(C(=O)Nc3ccccc3C(=O)O)cc2C1=O | 1.7 | -14.8 | 1.0% | 5.8 | 11.2 | -7.8
CCOC(=O)C(C)N1C(=O)S/C(=C/c2cc(C)n(-c3ccccn3)c2C)C1=O (configuration not stated) | 3.4 | -13.3 | -1.4% | -4.0 | -19.3 | -10.8
O=C1C2ON(c3ccccc3)C(c3ccncc3)C2C(=O)N1c1ccc(Br)cc1 (configuration not stated) | -0.6 | 0.1 | -0.2% | 1.0 | 29.4 | -14.3
CCOC(=O)c1sc(=NC(=O)c2ccc(OC)c(OC)c2)n(C)c1C | 3.8 | 4.3 | . | -1.5 | -9.7 | 14.2
CC(=O)c1cccc(NC(=O)CN(C)S(=O)(=O)c2cccc3nsnc23)c1 | 0.6 | -4.4 | -1.5% | -7.4 | -10.9 | 5.9
COc1cccc(NC(=O)c2cc3c(-c4ccc(Cl)cc4)nn(C)c3s2)c1 | 0.3 | . | 2.9% | . | . | 24.2
Cc1csc(NC(=O)c2c(O)c3c(n(CC(C)C)c2=O)CCCC3)n1 | -1.1 | -0.1 | 2.3% | -2.5 | -1.7 | -4.2
CC(C)N1CC(=O)N2CSCC2C1=O (configuration not stated) | -0.1 | 7.2 | -0.2% | . | . | .
COc1ccc(S(=O)(=O)N2CCC3CC2c2cc(-c4ccc5c(c4)OCO5)ccc23)cc1 (configuration not stated) | -0.1 | 1.1 | 1.8% | -4.9 | -4.3 | .
C/[N+]([O-])=C\c1cccc(OCCN2CCN(c3ncc(C(F)(F)F)cc3Cl)CC2)c1 | 1.3 | 6.4 | 6.8% | 0.6 | -19.0 | -17.6
CCCCS(=O)(=O)c1sc2nc3c(cc2c1N)CCCC3 | 0.5 | -9.1 | 2.0%[38.3 µM] | -1.8 | -3.2 | -8.4
O=C(COc1ccc([N+](=O)[O-])cc1Cl)Nn1cnnc1 | . | 3.6 | 0.1% | -2.9 | -6.6 | .
COc1ccccc1/C=N/NC(=O)CO | -0.1 | -2.1 | 0.5% | 0.8 | -2.7 | 20.5
Cc1cc(NC(=O)COC(=O)c2cc(S(=O)(=O)N(C)c3ccccc3)ccc2Cl)no1 | -0.2 | 3.7 | 0.3% | -0.5 | -14.3 | -5.0
Cc1ccc(-n2c(C)cc(/C=N/NC(=O)CC3(C)OCCO3)c2C)c(C)c1 | 4.3 | -5.5 | -1.1% | 0.8 | -2.1 | 53.5
Cc1cccc(C(=O)Nc2ccc(C(=O)OCc3cc(=O)n4nc(CC(C)C)sc4n3)cc2)c1 | 0.5 | . | 1.4% | . | . | -25.3
CCC(CC)NC(=O)c1n[nH]c(=O)c2ccccc12 | 1.0 | 1.6 | -2.1% | 1.0 | 12.4 | -11.1
COc1ccc(OC)c(NC(=O)CSc2ncc3c(n2)-c2ccccc2N(C)S3(=O)=O)c1 | 1.2 | . | 2.3% | . | . | 46.3
CCN(C(=O)CSc1nnc(C)n1-c1ccccc1)C1CCS(=O)(=O)C1 (configuration not stated) | -0.3 | -0.2 | 1.8% | -1.9 | -4.1 | -1.8

The list goes on; it opens with the 2 that closed the last part.
structure | TRPML1 agonist | Six1-Eya2 inh | PINK1 modulator | D2 agonist | D2 PAM | TRPML1 inh
COc1ccc(OC)c(NC(=O)CSc2ncc3c(n2)-c2ccccc2N(C)S3(=O)=O)c1 | 1.2 | . | 2.3% | . | . | 46.3
CCN(C(=O)CSc1nnc(C)n1-c1ccccc1)C1CCS(=O)(=O)C1 (configuration not stated) | -0.3 | -0.2 | 1.8% | -1.9 | -4.1 | -1.8
Cc1noc(NS(=O)(=O)c2ccc(NC(=O)c3cnc4scc(C)n4c3=O)cc2)c1C | -0.4 | 0.0 | 2.9% | -4.5 | -12.0 | 26.5
COc1cccc(N2CCN(C(=O)CN(C)S(=O)(=O)c3ccc4c(c3)CCC(=O)N4)CC2)c1 | -1.0 | -11.2 | 0.5% | -4.1 | -3.8 | 5.3
O=C(OCC(=O)N1CCOCC1)c1ccccc1Cc1ccccc1 | 0.1 | 1.1 | 0.9% | -1.5 | -4.1 | -25.9
CCN(CC)c1ccc(NC(=O)C(C)C)cc1 | 0.5 | -0.9 | -0.5%[38.3 µM] | -4.2 | 0.8 | -2.6
COc1ccc(-c2sc(Nc3ccccc3)n[n+]2-c2ccc(F)cc2)c(OC)c1OC | -0.1 | 1.3 | -0.4% | -3.3 | -18.3 | -2.7
COCCN1C(=O)/C(=C/c2cc3c(cc2Br)OCO3)NC1=S | 1.2 | 3.6 | -0.7% | 3.6 | -10.4 | -4.1
C/C(COc1ccccc1)=N\NC(=O)c1nnn(-c2nonc2N)c1-c1ccc(C)cc1 | 0.5 | 3.6 | -1.0% | -0.9 | -33.4 | -0.2
CCOC(=O)N1CCN(C(=O)c2ccccc2NC(=O)c2ccc(F)cc2)CC1 | -0.4 | 10.2 | -0.6% | 2.0 | -0.1 | -5.9
Cc1cccc(C)c1NC(=O)CCCCCNS(=O)(=O)c1ccccc1 | 0.7 | 0.4 | 0.7% | 2.9 | -3.3 | -2.4
CC(CNCc1ccc2c(c1)OCO2)NCc1ccc2c(c1)OCO2 (configuration not stated) | -0.8 | 3.1 | 4.5% | 0.8 | -13.7 | 3.1
CC(C)c1ccc(C2CC(=O)N3CN(C)CSC3=C2C#N)cc1 (configuration not stated) | -0.1 | 8.2 | -0.6% | 2.0 | -8.3 | 1.9
